High-throughput results (PubChem)
Bead autofluor: flagged as autofluorescent in microsphere protease counterscreen; compound autofluorescence counterscreen, microsphere flow cytometry; hits give high values; fluorescence intensity (test concentration not listed); actives 3.1% (n = 360,000);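 active = at least 3 SD above the mean of all compounds, about 16000 in these data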;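 note: 100 nL of 1 mM stock went into each well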
PrP UTR inh: inhibition of PrP 5' UTR reporter expression | cell-based PrP 5' UTR mRNA reporter, plate reader | inhibition, % (no concentration beside the values) | actives 0.35% (n = 340,000);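 active = every replicate at 50% or more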;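 note: 0 = median of the neutral control wells; tested in H4 reporter cells; numbers are from one replicate; inactives centre near -14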
* marks the source's active call; other numbers are inactive results; & = joins results of further samples.

Every second line gives: Bead autofluor, PrP UTR inh
NC(=S)N1N=C(c2ccccc2)CC1=O
  2926, -16
C=CC[C@@H](CC(=O)N[C@@H](CO)Cc1ccccc1)C(=O)N[C@H](COC(=O)[C@@H](CC=C)Cc1ccc(F)cc1)Cc1c[nH]c2ccccc12
  4036, -5
CCOC(=O)[C@]12Cc3cc(OC)c(OC)cc3[C@H]1N(Cc1ccccc1)C(=O)c1ccccc12
  3992, -3
C#CCOCCOCCOCCNc1nc(N2CCN(C(=O)[C@H]([C@@H](C)O)n3cc(CCCCN)nn3)CC2)nc(N2CCN(C(=O)[C@H]([C@@H](C)CC)n3cc(CCCCN)nn3)CC2)n1
  4252, -15
CCOC(=O)[C@H]1[C@H]2COc3cc(OC)ccc3[C@@H]2N2C(=O)c3cc(C)ccc3NC(=O)[C@@]12C
  2902, 6
CC(C)(C)OC(=O)C[C@H]1C/C=C\C[C@H](CC(=O)NCCO)C(=O)N[C@@H](c2ccccc2)COC1=O
  3115, -13
CCOC(=O)C1=CC[C@@H](c2ccco2)N(S(=O)(=O)c2ccc(C)cc2)[C@H]1C(=O)OCC
  3963, -18
CC(C)(C)OC(=O)N1CCC(C(=O)Nc2cccc(C(=O)NCc3ccccc3)c2)CC1
  3484, -13
O=C(OCC(=O)N1CCN(C(=O)c2ccco2)CC1)c1ccc(Cl)nc1
  3438, -12
CC1=C(C)CC2C(C1)C(=O)c1ccc(Br)cc1S2(=O)=O (stereo unspecified)
  3559, -18
O=C(O)/C=C\C(=O)O
  4636, 3
Cc1nnc(N=c2ssnc2Cl)o1
  2948, -20
CCOC(=O)[C@@H]1[C@H]2COc3ccccc3[C@H]2N2C(=O)N(c3cccc(C)c3)C(=O)[C@]12C
  2935, -16
CSCCC(NC=O)C(=O)NC(C)C(=O)O (stereo unspecified)
  5321, -15
Cc1ccn2c(NC3CCCCC3)c(-c3cccc(SC4CCCCC4)c3)nc2c1
  7217&12581, -18
CN(C)S(=O)(=O)c1ccc2c(c1)/C(=C/c1cc3c([nH]1)CCCC3)C(=O)N2
  7840, -22
COc1cc(CNC(=O)CCCC/C=C/C(C)C)ccc1O
  4984, -31
COc1ccc([C@@H]2CC=C(C(=O)O)[C@H](c3ccc(Cl)cc3)N2S(=O)(=O)c2ccc(Cl)cc2)cc1
  2966, -6
CC(C)C[C@H]1CN([C@@H](CC(C)C)CN2CCCC2CN2C(=S)NC[C@@H]2Cc2ccc(O)cc2)C(=S)N1CCc1ccccc1 (stereo partly specified)
  3929, -7
COC(=O)c1cccc2c(C(=O)O)cc(-c3ccccc3)nc12
  3369, 45

New compounds follow
Every second line gives: Bead autofluor, PrP UTR inh
NC(=O)c1ccsc1NC(=O)COC(=O)COc1ccc(C=O)cc1
  4035, -16
CC(=NNC(=O)c1ccncc1)c1ccc2ccccc2c1O
  3444, 20
CC(C)C[C@@H](CN)NC(=O)c1nc[nH]c1C(=O)N[C@@H](CC(C)C)C(=O)CNC[C@H](C)NC(=O)c1nc[nH]c1C(=O)N[C@@H](CC(=O)O)C(=O)O
  3532, -20
Cc1cc2c(cc1C)NC(=O)CC(c1ccccc1)=N2
  3437, -117
O=S(=O)(NCCc1nc2ccccc2[nH]1)c1ccccc1
  3799, -6
C/C(=N\NC(=O)COc1ccc([N+](=O)[O-])cc1)c1ccco1
  7584, -16
Cc1ccc(CN2[C@@H](Cc3ccccc3)C(=O)CS2(=O)=O)cc1
  3712, -18
O=c1c(-c2c(O)cc(O)c3c2O[C@H](c2ccc(O)cc2)CC3)c(-c2ccc(O)cc2)oc2cc(O)cc(O)c12
  3568, -15
CC[C@H]1CN2CCC1C[C@@H]2[C@H](O)c1ccnc2ccc(OC)cc12 (stereo partly specified)
  6225, -6
Cc1ccc(S(=O)(=O)N2[C@@H](c3ccccc3F)C(C(=O)O)=CC[C@H]2c2ccc(Cl)cc2)cc1
  3732, -22
CC(C)(C)OC(=O)N(CCc1ccccc1)Cc1cccc(OCc2cccc(NC(=O)c3ccccc3)c2)c1
  3689, -26
O=C(NCc1ccccc1)c1ccc(NC(=O)C2CCC2)cc1
  2813, -27
OCC[C@H]1C[C@@H](O)[C@H](O)[C@]2(OCc3ccccc32)O1
  4110, -8
O=C(Nc1cccc(S(=O)(=O)N2CCCC2)c1)c1cncc(Br)c1
  3824, -7
CC12CCC(O)CC1CCC1C2CCC2(C)C(C(=O)CC(O)C(F)(F)F)CCC12 (stereo unspecified)
  3633, -15
CCC[C@@H](O)c1cc2cc(OC)c(OC)cc2c(=O)o1
  4119, -24
COC(=O)[C@@]12CCCCN1[C@H](c1ccc(-c3ccc(OC)cc3)c(OC)c1)[C@@H]1C(=O)N(C)C(=O)[C@@H]12
  3015, -12
CCCC[C@H](CC(=O)c1ccccc1)[C@@H](OC(C)=O)C(=O)Oc1c(C(C)C)cccc1C(C)C
  3753, -20
COc1cc([C@@H]2CC=C(C(=O)O)[C@H](c3ccc(F)cc3)N2S(=O)(=O)c2ccc(C)cc2)cc(OC)c1OC
  3796, -1
C[C@H](NC(=O)c1nc[nH]c1C(=O)N(C)Cc1ccccc1)C(=O)OC(C)(C)C
  3911, -12

Continued.
Every second line gives: Bead autofluor, PrP UTR inh
COC(=O)C1=C(c2ccc(F)cc2OCc2ccccc2)C[C@@H]2CC[C@H]1N2C(=O)NCc1ccco1
  4186, -21
O=C(C[C@@H]1C/C=C\C[C@H](Cc2ccc(F)cc2)C(=O)OCCNC1=O)N[C@H](CO)Cc1ccccc1
  2680, -1
CC(=O)NC(CC(C)C)C(=O)O (stereo unspecified)
  6681, -37
CC1=CC(C)CC(C)OC(=O)CC(c2ccc(O)cc2)NC(=O)C(Cc2c(Br)[nH]c3ccccc23)N(C)C(=O)C(C)NC(=O)C(C)C1 (stereo unspecified)
  3488, 74*
C[C@H](NC(=O)c1[nH]cnc1C(=O)Nc1ccccc1)c1ccccc1
  4233, -9
Cc1ccc(OCC(=O)NNC(=S)NC(=O)C2CC2)c(C)c1
  5099, -7
O=c1/c(=C/c2ccco2)sc2nc(-c3ccccc3Br)nn12
  4338, -11
O=CN/C=C/c1cccc(O)c1
  3524, -23
CC(C)(C)OC(=O)C[C@@H]1C/C=C\C[C@@H](CC(=O)N(CCO)Cc2ccccc2)C(=O)N[C@H](Cc2c[nH]c3ccccc23)COC1=O
  3151, -9
COC(=O)C1=C(c2ccc(OCc3ccccc3)cc2)C[C@@H]2CC[C@H]1N2C(=O)NCc1ccc([N+](=O)[O-])cc1
  3612, -7
O=C(N[C@H]1CCC(=O)N(CCSc2ccc(Br)cc2)CC1)OCc1ccccc1
  4245, -21
CCCCn1c(N)c(N(C(=O)CSc2nncn2-c2ccccc2C)C2CCCC2)c(=O)[nH]c1=O
  3673, -9
CCCCN1CC(COCc2ccccc2)Oc2cccc(N3CCCC3)c2S1(=O)=O (stereo unspecified)
  2959, -25
O[C@H]1c2ccccc2[C@H](Cc2cncs2)[C@@H]1Br
  4176, -1
CCCCN1C[C@H](COC(=O)CCC)Oc2cccc(F)c2S1(=O)=O
  3654, -9
C=CCN1[C@@H](Cc2ccccc2)COCCS1(=O)=O
  2853, -15
COC1C(CO)OC(n2c3c(Cl)cccc3c3c4c(c5c6cccc(Cl)c6[nH]c5c32)C(=O)NC4=O)C(O)C1O (stereo unspecified)
  3865, 50
CC(=O)Nc1ccc(SC[C@H](C)CN2CC[C@H](C(C)(C)C)CCC2=O)cc1
  3740, -29
O=C(NCCCc1ccccc1)c1cccc(NC(=O)C2CCCC2)c1
  3903, -19
C=C1C(=O)OC2C1CCC(C)C1C=CC(=O)C12C (stereo unspecified)
  3781, -25

(further entries)
Every second line gives: Bead autofluor, PrP UTR inh
Cc1nn(-c2ccccc2)c(Oc2ccc(F)cc2)c1/C=N/n1cnnc1
  4490, -4
COc1cc2c3cc1Oc1cc(ccc1O)C[C@@H]1c4c(cc(OC)c(O)c4Oc4cccc(c4)C[C@@H]3N(C)CC2)CC[N+]1(C)C
  6013, 3
C=CC[C@@H](CC(=O)N(CCO)Cc1ccccc1)C(=O)N[C@@H](COC(=O)[C@@H](CC=C)Cc1ccc(F)cc1)Cc1c[nH]c2ccccc12
  3704, -21
Cc1ccccc1[C@@]1(C)ON(c2ccccc2C(F)(F)F)C1=O
  3039, -15
C[C@@H]1CCCCCCCCC(=O)OCCN(C(=O)OC(C)(C)C)[C@H](C)CCCCCCCCC(=O)OCCN(C(=O)OC(C)(C)C)[C@H](C)CCCCCCCCC(=O)OCCN(C(=O)OC(C)(C)C)[C@H](C)CCCCCCCCC(=O)OCCN1C(=O)OC(C)(C)C
  3510, -27
COc1ccc2c(c1)OC[C@H]1[C@H]2N2C(=O)c3ccc(F)cc3NC(=O)[C@@]2(C)[C@H]1c1ccccc1
  2979, -6
CC(=O)Nc1ccc(SC[C@H](Cc2ccccc2)N2CC[C@@H](C)CCC2=O)cc1
  3722, -8
CCOC(=O)c1ccc(-c2c(-c3ccccc3OC)sc3ccc(OC)cc23)cc1F
  2730, -6
O=C(NC1CC1(c1ccccc1)c1ccccc1)c1ccccc1 (stereo unspecified)
  3350, -24
CCOc1ccc(CCN2C(=S)N([C@@H](CC(C)C)CN3CCCC3CN3C(=S)NC[C@@H]3Cc3ccc(O)cc3)C[C@@H]2CC(C)C)cc1 (stereo partly specified)
  3890, -12
Cc1cccc(-c2ccc3c(c2)C2CC3CCN2)c1 (stereo unspecified)
  4128, 17
CC(=O)c1c(C)[nH]c(C(=O)COC(=O)COc2ccccc2F)c1C
  3503, -11
C=CCC1(Cc2ccsc2)C(=O)NC(=O)NC1=O
  3504, -43
CN(Cc1ccccc1)Cc1ccccc1C(O)c1ccccc1 (stereo unspecified)
  3332, -8
COc1ccc(C2=Nn3c(nnc3-c3ccccc3F)SC2)cc1OC1CCCC1
  4390, -17
CCOc1ccc(S(=O)(=O)NCc2cccnc2)cc1NC(=O)c1ccccc1
  3860, -19
COc1cc(NC(=O)[C@@H]2CCCN2S(=O)(=O)c2cccc3cccnc23)cc(OC)c1OC
  4029, 1
CC12CC(=O)C3C(CCC4CC=CCC43C)C1CCC2=O (stereo unspecified)
  3567, -6
CC(=O)N1C[C@H]2CON(C)[C@H]2C[C@H]1c1cccc(-c2ccccc2)c1
  3994, -18
O=C(CNC(=O)c1ccc2c(c1)OCO2)N/N=C/c1cccc([N+](=O)[O-])c1
  2169, -44

Next structures follow.
Every second line gives: Bead autofluor, PrP UTR inh
CCOC(=O)[C@H]1[C@H]2COc3ccc(Br)cc3[C@@H]2N2C(=O)c3ccc(C)cc3NC(=O)[C@@]12C
  3740, -16
Cc1ccccc1-c1cccc([C@@H]2C[C@H]3[C@H](CON3C)CN2S(=O)(=O)c2ccccc2C)c1
  3545, -16
CCCCN1CC(C)(C)Oc2cccc(F)c2S1(=O)=O
  3411, -140
COc1ccc(S(=O)(=O)Nc2ccc3c(c2)C(=O)N([C@H](C)CO)C[C@H](C)[C@@H](CN(C)S(=O)(=O)c2ccc(OC)cc2)O3)cc1
  3296, -12
CC12CCC(C(=O)C1)C1(C)CCCC(=O)C21 (stereo unspecified)
  2996, -10
O=C1N[C@@H](Cc2ccccc2)COC(=O)[C@H](Cc2ccc(F)cc2)CC/C=C/C[C@H]1CC(=O)N(CCO)Cc1ccccc1
  3802, -13
Cc1cn(CC(=O)N2CCN(c3ccccn3)CC2)c(=O)[nH]c1=O
  3902, -9
Cc1ccc(S(=O)(=O)c2nc(Cc3ccccc3)oc2N2CCOCC2)cc1
  3780, -4
Cc1ccc2cc(C#N)c(SCC(=O)NNC(=O)Cc3ccccc3)nc2c1
  2067, -4
CCOC(=O)CN1CC(C)(C)N(CC(=O)OCC)CC1(C)C
  3580, -10
CC(C)(C)OC(=O)N(CCc1ccccc1)Cc1cccc(OCc2cccc(NC(=O)C3CCCC3)c2)c1
  2959, -26
C=C1C(=O)OC2C1C(OC(=O)C(C)=CC)CC(=C)C1C(O)C3OC3(C)C21O (stereo unspecified)
  2846, -14
CC(C)(O)CN(C(=O)c1ccccc1)C1CCCCC1
  4320, 4
CC(C)C[C@@H](CN1CCCC1CN1C(=S)NC[C@@H]1Cc1ccc(O)cc1)N1C[C@H](Cc2ccccc2)N(CC2CCCCC2)C1=S (stereo partly specified)
  3763, -77
COC(=O)c1c(C)[nH]c(C(=O)C(C)OC(=O)c2c(C)noc2C)c1C (stereo unspecified)
  2810, 8
COC(=O)c1ccc(CCc2cc(O)ccc2O)cc1
  3499, -33
C/C(=N\NC(=O)COc1cccc(C)c1)c1ccc2ccccc2c1O
  5442, -13

A portion of the library; count on the stated rates, not on these rows.
